# Arbovirus inh: arbovirus infection inhibition; inhibition, % at 10 µM; 200,000 compounds, 0.37% hits; arbovirus infection cell-based antiviral screen;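 active means inhibition from about 30%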;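 further: bluetongue infection of BSR cells; cell survival read as ATP light after 72 h; 0% = infected wells without compound and 100% = uninfected wells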
# Mtb betalactam: beta-lactam sensitization of Mtb H37Rv; M. tuberculosis H37Rv growth with meropenem, percent inhibition; hits of this screen are not shown here; inhibition, % at 25 µM; 330,000 compounds, 0.27% hits; AID 434955;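 active means about 74% or more and at least 40 points above the plate without the antibiotic, then above 30% in a dose series; inconclusive means first-round hits that could not be retested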;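 further: growth measured after seven days incubation then overnight dye step; 0% = bacteria only wells and 100% = bacteria with antibiotic; twin plates without the antibiotic show which effects depend on it; some results filed as inactive read as strong as hits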
# RecA splice inh: Mtb RecA intein splicing inhibition | P9WHJ3 | cell-free RecA intein splicing, fluorescence | inhibition, %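 (about 9 µM by stock and volumes)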 | 290,000 compounds, 0.75% hits; in the data active means inhibition above about 30%; inconclusive means no clear call, values can overlap the other calls;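 further: 0% = vehicle wells and 100% = reference inhibitor control wells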
# Target sequence (P9WHJ3 whole entry, looked up, canonical isoform): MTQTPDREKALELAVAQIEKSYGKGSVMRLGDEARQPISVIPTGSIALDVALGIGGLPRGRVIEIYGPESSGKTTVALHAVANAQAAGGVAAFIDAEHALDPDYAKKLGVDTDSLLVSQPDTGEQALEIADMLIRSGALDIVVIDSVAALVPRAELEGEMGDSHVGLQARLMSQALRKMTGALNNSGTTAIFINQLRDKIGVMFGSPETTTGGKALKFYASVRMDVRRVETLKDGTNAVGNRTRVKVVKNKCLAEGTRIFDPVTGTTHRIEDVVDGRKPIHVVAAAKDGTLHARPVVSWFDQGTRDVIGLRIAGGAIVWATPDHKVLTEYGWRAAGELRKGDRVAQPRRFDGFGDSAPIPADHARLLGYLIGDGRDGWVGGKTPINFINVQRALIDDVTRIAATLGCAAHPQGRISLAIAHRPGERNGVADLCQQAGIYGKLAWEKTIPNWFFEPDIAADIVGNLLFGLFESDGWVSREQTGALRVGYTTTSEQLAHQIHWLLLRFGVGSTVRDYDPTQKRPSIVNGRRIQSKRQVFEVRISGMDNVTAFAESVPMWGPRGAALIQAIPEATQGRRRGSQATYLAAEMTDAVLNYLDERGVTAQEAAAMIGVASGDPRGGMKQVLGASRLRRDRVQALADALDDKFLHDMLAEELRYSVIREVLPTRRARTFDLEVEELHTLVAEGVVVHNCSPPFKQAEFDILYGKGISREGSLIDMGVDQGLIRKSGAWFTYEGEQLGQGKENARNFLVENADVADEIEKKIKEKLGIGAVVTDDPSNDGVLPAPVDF
# YopH PTP inh: blocks Yersinia enterocolitica YopH tyrosine phosphatase; 140,000 compounds, 0.16% hits; inhibition, %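 (about 10 µM by stock and volumes)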; AID 898; fluorescence Ex485/Em525;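 active means inhibition of 50% or more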;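 further: controls were vehicle for no effect and minimum signal wells for full effect; inactives centre near -20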
# Mtb H37Rv: M. tuberculosis H37Rv growth inhibitors, H37Rv strain (AID 1626) | M. tuberculosis H37Rv growth inhibition; higher % means a stronger effect | inhibition, % at 10 µM, or IC50 in µM where a hit was titrated | 220,000 compounds, 0.95% hits;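 active means confirmed in a dose series; inconclusive means inhibition above 80% but not taken into the dose series; inactive means below 80% or under 30% at every dose of the series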;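 further: bacteria incubated seven days before Alamar blue readout; 0% = bacteria only wells and 100% = bacteria with antibiotic wells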
# Arbovirus inh repeat: recorded beside Arbovirus inh, whose call it bears; inhibition, %; measured here: 10K subset replicate screen; many hits read low in the repeat;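 first of two repeat runs on a subset; 0% = infected and 100% = uninfected wells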
# Active calls of the source: *; ? = inconclusive; . = not tested or not shown.
SMILES,Arbovirus inh,Mtb betalactam,RecA splice inh,YopH PTP inh,Mtb H37Rv,others
Cc1ccn2c(CNC(C)c3cn(C)nc3C)c(C(=O)N3CCCCCC3)nc2c1 (stereo not drawn),.,-26,-3.4,.,.,
CCn1c(=NC(=O)CN2C(=O)CCC2=O)sc2c(OC)ccc(OC)c21,-5,-10,1.0,-3,0%,Arbovirus inh repeat=-13
O=[N+]([O-])c1ccc2nnn(O)c2c1,4,-4,-1.8,-20,-1%,
COC(=O)c1ccc(NC(=O)CN(C)S(=O)(=O)c2ccc(OC)c(C)c2)cc1,-2,20,2.4,-23,2%,
C=CCOc1ccc(/C=N/NC(=O)c2c(C)nc3ccc(Cl)cn23)cc1,.,8,0.4,.,.,
Cn1c(CNc2ccc(Cl)cc2)nnc1SCC#N,1,-6,1.3,.,-2%,
CC(=O)c1ccc(NC(=O)Nc2ccc([N+](=O)[O-])cc2)cc1,-3,17,-0.1,-20,12%,
CCOCCCNCc1ccc(OCc2ccccc2C)c(OC)c1,-17,2,1.7,.,10%,
O=S(CC1CC1(Cl)Cl)CC1CC1(Cl)Cl (stereo not drawn),-10,5,-0.5,1,3%,
COc1ccc2cnn(Cc3ccccc3)c(=O)c2c1OC,-2,-7,-0.2,-31,-1%,
O=C(COC(=O)c1nc(Cl)ccc1Cl)Nc1ccccc1OC(F)F,3,4,4.1,.,0%,
CN(C)C(CNC(=O)c1ccc(C(=O)c2ccccc2)cc1)c1ccccc1 (stereo not drawn),.,8,2.9,.,.,
CCS(=O)(=O)c1ccc(O)c(NC(=O)c2cc(OC)c(OC)c(OC)c2)c1,5,-2,0.1,-39,-1%,
CN(C)c1ccc(C2NCCS2)cc1 (stereo not drawn),-1,-4,-2.5,-38,-5%,
O=[N+]([O-])c1cc2c(cc1CN1CCN(CCOCCO)CC1)OCO2,.,1,-2.2,.,.,
COc1cc(NC(=S)Nc2ccccn2)cc(OC)c1OC,4,0,-1.6,.,3%,
Clc1ccc(-c2cnc3n2CCCCC3)cc1,-2,-4,1.2,.,2%,
CC(=O)c1sc(-c2ccc(Cl)cc2)nc1C,-1,2,1.9,.,2%,
COc1ccc(-c2nc(CSCC(=O)NC3CCCc4ccccc43)c(C)o2)cc1OC (stereo not drawn),-17,4,3.5,-25,-8%,
CC1Cc2ccccc2N1C(=O)Cn1cc([N+](=O)[O-])cn1 (stereo not drawn),2,-9,0.5,-21,-4%,
S=c1[nH]nc(Cc2sc(-c3ccccc3)nc2-c2ccccc2)o1,3,0,2.1,-8,.,
FC(F)(F)c1ccccc1N/N=C/c1cccnc1,.,19,0.8,.,.,
O=C(c1ccccc1)c1ccc(OCC(O)CN2CCCCC2)cc1 (stereo not drawn),-20,4,-0.5,12,5%,
CCCN1CCN(C(=O)Cn2c(=O)oc3cc(S(=O)(=O)NCc4ccccc4)ccc32)CC1,-5,3,0.8,-19,0%,
Cc1ccc(C(=O)CSc2nc(O)cc(=O)[nH]2)cc1C,.,-2,2.0,.,.,
CCn1c(COc2ccc(OC)cc2)nnc1SCc1nc2ccccc2c(=O)[nH]1,-13,-3,.,.,-10%,
CC(NC(=O)c1ccccc1Cl)C(=O)O (stereo not drawn),0,-3,-0.5,-35,-9%,
CCOc1cccc(C(=O)NC(=S)Nc2ccc(Cl)cc2C(=O)O)c1,12,3,-1.3,.,4%,
O=c1oc(-c2ccccc2NS(=O)(=O)c2ccc(Cl)cc2)nc2ccccc12,.,-8,.,.,6%,
CCOC(=O)c1c(C)n(Cc2ccco2)c2c1cc(O)c1ccccc12,7,-18,-0.9,16,3%,
CC1(C)CC(=O)C2=C(C1)NC(=O)NC2c1ccc([N+](=O)[O-])cc1 (stereo not drawn),.,-2,-1.3,.,.,
O=C(c1ccccc1Cl)N1CCC(c2nc3c(nnn3Cc3ccco3)c(=O)[nH]2)CC1,8,1,0.3,-22,11%,Arbovirus inh repeat=1
CCc1ccc(N(C(=O)c2csnn2)C(C(=O)NCc2ccccc2)c2ccco2)cc1 (stereo not drawn),-20,?,-5.5,-128,-7%,
O=C(N/N=C/c1ccccn1)c1ccc(Br)o1,-7,55,0.0,-18,2%,
CCCCN(CC)S(=O)(=O)c1ccccc1,-1,-22,-0.2,1,-4%,
CCc1ccc(NC(=O)C2CCCN(S(=O)(=O)c3cnc[nH]3)C2)cc1 (stereo not drawn),.,-5,-1.9,.,.,
Clc1cccc(CN2CCN(c3ncccn3)CC2)c1Cl,.,-5,3.1,.,.,
O=C(CN1CCN(c2ccccc2)CC1)NCc1ccc(F)cc1,.,-10,1.8,.,.,
Cc1ccc(S(=O)(=O)N(Cc2ccc(Cl)cc2)c2ccccc2C(=O)O)cc1,.,-6,1.5,.,.,
CCC(C)(C)NC(=O)c1ccc2c(c1)N(CC(=O)NC1CCCC1)C(=O)C(C)(C)O2,.,2,-2.2,.,.,
Cn1c(=O)c2c(SCC(=O)N3CCCc4ccccc43)nc(C3CC3)nc2n(C)c1=O,-8,5,-1.4,-1,10%,
N#Cc1c(NCCCO)nc(-c2ccccc2)c2c1CCCC2,-3,-5,5.0,-17,-9%,
CC(=NCc1ccccc1)C1=C(O)COC1=O,-15,-4,-2.9,-40,-13%,Arbovirus inh repeat=-11
CC1CC2(CCCCC2)N2C(=O)C(=O)c3cccc1c32 (stereo not drawn),-32,74,0.7,-20,2%,
CC(Oc1ccc2c3c(c(=O)oc2c1)CCC3)C(=O)NCC1CCC(C(=O)O)CC1 (stereo not drawn),.,-12,0.7,.,.,
CCC(C)n1c(SCC(=O)NC2CCCC2)nc2ccccc2c1=O (stereo not drawn),.,3,0.4,.,.,
Cc1nnc(NC(=O)CSc2nc3c(c(=O)n2CCc2ccccc2)SC(C)C3)s1 (stereo not drawn),-6,-6,1.5,-45,2%,Arbovirus inh repeat=-2
COc1ccc(-c2cc(C(=O)NCCc3ccccc3)no2)cc1OC,-3,7,-0.3,-20,2%,
Cc1cccn2c(=O)c(/C=C(\C#N)S(=O)(=O)c3ccccc3)c(N3CCN(c4ccccc4)CC3)nc12,.,6,0.2,.,.,
N#Cc1cnn2c(-c3ccc(Cl)cc3Cl)ccnc12,-7,1,0.1,.,0%,
O=Cc1ccc(OCC(=O)Nc2ccccc2C(F)(F)F)cc1,4,-1,-1.6,.,7%,
COc1ccc(NC(=O)C(=O)NCCN2CCN(C(=O)c3cccs3)CC2)cc1,6,-6,-1.8,-31,1%,
Cc1ccc(Cn2ccc(NC(=O)c3cc(-c4cccs4)on3)n2)cc1,-8,2,-1.4,-23,7%,
C#CCn1c(=NC(=O)c2cc(Cl)sc2Cl)sc2cc(S(N)(=O)=O)ccc21,26,98,2.9,-4,1.6µM*,
CCCc1nc2ccc(NC(=O)c3ccco3)cc2c(=O)n1Cc1ccc(Cl)cc1,-16,2,0.0,-6,8%,
CC(C)c1ccc(/C=C2\SC(N3CCCC3)=NC2=O)cc1,-2,-2,5.6,-4,15%,
Cc1nn(-c2ccccc2[N+](=O)[O-])c(=O)c2ccccc12,-7,5,.,.,-9%,
CCCNC(=O)CS(=O)(=O)c1ccccc1,.,-3,0.8,.,.,
CC1CCCC(C)N1C(=O)CSc1ccc(-c2ccc3c(c2)OCCO3)nn1 (stereo not drawn),.,1,-0.7,.,.,
COc1ccc(Cl)cc1NC(=O)CNc1ccc(F)cc1C,1,2,0.0,-22,6%,

# New compounds follow.
SMILES,Arbovirus inh,Mtb betalactam,RecA splice inh,YopH PTP inh,Mtb H37Rv,others
COc1ccc(-c2nc3ccccc3n2OC(C)C(=O)O)cc1 (stereo not drawn),-2,0,-1.0,.,-3%,
CCOc1ccc(C(=O)Nc2c(C(N)=O)oc3ccccc23)cc1,-25,67,0.4,-36,4%,
COc1ccc(NC2CCCN(C(=O)c3cc(CC(C)C)nc(N)n3)C2)cc1 (stereo not drawn),.,0,5.0,.,.,
CC/C(Cc1ccccc1)=N/NC(=O)CCn1nnc2ccccc21,5,-1,2.1,.,-9%,
COc1ccccc1NS(=O)(=O)c1cccc(C(=O)NCC(c2ccco2)N(C)C)c1 (stereo not drawn),.,-12,1.3,.,.,
CC1CCCC(C(=O)OCc2ccccc2)N1 (stereo not drawn),5,-8,2.5,-13,-4%,
O=C1NC(c2ccccc2)=C(c2nc3ccccc3s2)C(c2ccc(F)cc2)N1 (stereo not drawn),-38,26,2.4,2,12%,
O=C(c1cnc2n(c1=O)CCS2)N1CCN(c2ccccc2F)CC1,6,0,0.3,-18,1%,
CCNc1nc(C)c2cc(Br)c(=O)n(CC)c2n1,-8,-5,-1.2,-28,-2%,Arbovirus inh repeat=-13
Cc1ccccc1N1CCN(C2CCCN(C(=O)c3ccc(Cl)s3)C2)CC1 (stereo not drawn),.,10,3.9,.,.,
COC(=O)c1cccc(NC(=O)CC2C(=O)NCCN2C(=O)Nc2cc(C)cc(C)c2)c1 (stereo not drawn),.,?,3.3,.,.,
COC(=O)CCCCCCCCCCN1CCCCC1,-3,-11,-0.7,-18,4%,
O=C(NCCS(=O)(=O)N1CCN(c2ccccc2)CC1)c1cccs1,.,-8,-3.1,.,.,
O=c1[nH]c2ccccc2c2oc(CCl)nc12,.,98,24,.,-5%,
COc1ccc(CNC(=O)C2CCN(C(=O)[C@@H]3Cc4ccccc4CN3)CC2)cc1,.,0,-3.7,.,.,
CSc1nc(NCC(C)C)c2c3c(sc2n1)CN(C)CC3,0,6,-6.0,-14,-4%,
COc1nc(-c2ccccc2)c2c(c1C#N)CC(C)(C)OC2,-8,-6,5.9,-8,6%,
N#Cc1nc(COc2ccc(Br)cc2)oc1N1CCCC1,2,4,-9.0,-3,8%,
Cc1ccc(Cl)cc1NC(=S)N(CCCN1CCN(C)CC1)Cc1ccco1,5,-1,0.3,.,4%,
CCOC(=O)C1CCN(C(=O)Cn2cc(C#N)c3ccccc32)CC1,10,-11,-6.6,3,-1%,
Cc1sc2nc(SCC(=O)Nc3c(C)n(C)n(-c4ccccc4)c3=O)n(C)c(=O)c2c1C,5,-4,4.4,-2,-9%,
C=CCN1CCc2c(cc(O)c(O)c2Cl)C(c2ccccc2)C1 (stereo not drawn),.,-3,-3.3,.,0%,
O=C(O)CCC(=O)Nc1ccc(Br)cc1C(=O)c1ccccc1Cl,.,1,-3.2,.,-2%,
Cc1ccc(N(CC(=O)NCCc2ccccc2)S(=O)(=O)c2c(C)noc2C)cc1,-5,6,2.6,-20,4%,
CC1CC(C)CN(C(=O)COC(=O)c2nn(C)c(=O)c3ccccc23)C1 (stereo not drawn),.,-6,2.5,.,.,
O=c1c2ccccc2nnn1CSc1nnnn1-c1ccccc1,5,-2,0.4,-143,-2%,

# Entries shown so far that contain an aryl thioether with sulfur outside any ring:
SMILES,Arbovirus inh,Mtb betalactam,RecA splice inh,YopH PTP inh,Mtb H37Rv,others
Cn1c(CNc2ccc(Cl)cc2)nnc1SCC#N,1,-6,1.3,.,-2%,
Cc1ccc(C(=O)CSc2nc(O)cc(=O)[nH]2)cc1C,.,-2,2.0,.,.,
CCn1c(COc2ccc(OC)cc2)nnc1SCc1nc2ccccc2c(=O)[nH]1,-13,-3,.,.,-10%,
Cn1c(=O)c2c(SCC(=O)N3CCCc4ccccc43)nc(C3CC3)nc2n(C)c1=O,-8,5,-1.4,-1,10%,
CCC(C)n1c(SCC(=O)NC2CCCC2)nc2ccccc2c1=O (stereo not drawn),.,3,0.4,.,.,
Cc1nnc(NC(=O)CSc2nc3c(c(=O)n2CCc2ccccc2)SC(C)C3)s1 (stereo not drawn),-6,-6,1.5,-45,2%,Arbovirus inh repeat=-2
CC1CCCC(C)N1C(=O)CSc1ccc(-c2ccc3c(c2)OCCO3)nn1 (stereo not drawn),.,1,-0.7,.,.,
CSc1nc(NCC(C)C)c2c3c(sc2n1)CN(C)CC3,0,6,-6.0,-14,-4%,
Cc1sc2nc(SCC(=O)Nc3c(C)n(C)n(-c4ccccc4)c3=O)n(C)c(=O)c2c1C,5,-4,4.4,-2,-9%,
O=c1c2ccccc2nnn1CSc1nnnn1-c1ccccc1,5,-2,0.4,-143,-2%,

# Screening data from PubChem BioAssay.

# Only part of the results is shown. The share of hits here may be higher or lower than overall.
